p53 mut binder = mutant p53 (human) binding. calls only. small molecule microarray binding, anti-GST fluorescence. AID 624136. 0.4% of 17,000 active;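 active means compounds whose four printed spots each glow above background more than chance allows, each with a p-value under 7%; compounds were printed on slides so no solution concentration is given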;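 further: about 2 pmol printed per array spot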
STAT3 SMM = binders of human STAT3; P40763; Small molecule microarray, His-STAT3 binding, anti-His fluorescence; calls only; 0.2% of 17,000 active;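 active means compounds whose four printed spots each show fluorescence over background unusually high for their array block, chance value under 7%; compounds were printed on slides so no solution concentration is given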;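 further: about 2 pmol printed per array spot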
Target sequence (P40763 whole entry, looked up): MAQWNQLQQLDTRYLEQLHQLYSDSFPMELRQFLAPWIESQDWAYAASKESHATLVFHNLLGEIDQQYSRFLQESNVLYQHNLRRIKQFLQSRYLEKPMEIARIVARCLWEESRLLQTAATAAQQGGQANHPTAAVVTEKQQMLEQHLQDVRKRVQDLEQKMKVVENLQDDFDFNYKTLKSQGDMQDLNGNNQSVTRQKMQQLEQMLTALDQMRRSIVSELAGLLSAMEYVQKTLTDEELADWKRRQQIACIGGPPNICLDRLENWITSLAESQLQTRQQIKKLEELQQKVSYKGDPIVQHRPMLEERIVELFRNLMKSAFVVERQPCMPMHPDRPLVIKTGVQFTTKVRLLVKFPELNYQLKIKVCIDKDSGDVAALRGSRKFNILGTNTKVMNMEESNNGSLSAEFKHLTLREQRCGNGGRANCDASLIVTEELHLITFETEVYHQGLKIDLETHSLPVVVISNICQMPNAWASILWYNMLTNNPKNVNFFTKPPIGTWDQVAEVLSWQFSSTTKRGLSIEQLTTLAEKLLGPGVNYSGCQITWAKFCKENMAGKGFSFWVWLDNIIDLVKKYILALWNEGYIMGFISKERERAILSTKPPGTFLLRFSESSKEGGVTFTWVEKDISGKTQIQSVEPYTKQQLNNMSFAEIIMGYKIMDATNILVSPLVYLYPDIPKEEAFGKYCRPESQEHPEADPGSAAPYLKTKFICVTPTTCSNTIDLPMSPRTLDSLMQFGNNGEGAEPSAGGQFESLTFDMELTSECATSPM
Myc binder = binders of human c-Myc | 1.5% of 17,000 active | calls only | P01106 | small molecule microarray, His-c-Myc binding, anti-His fluorescence;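 active means spot fluorescence over background with P-value below 7% in all four replicate spots, showing protein binding; compounds were printed on slides so no solution concentration is given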;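 further: score is binary with 100 for all four spots passing and 0 otherwise; about 2 pmol printed per array spot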
ID4 binder = binders of human ID4 protein; small molecule microarray, Flag-ID4 binding, fluorescence F/B; calls only; 1.2% of 31,000 active; P47928;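 active means spot signal over background at p below 0.07 in all four prints; compounds were printed on slides so no solution concentration is given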;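 further: a binder raises fluorescence above local background on the spot; about 2 pmol printed per array spot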
Target sequence (P47928 whole entry, looked up): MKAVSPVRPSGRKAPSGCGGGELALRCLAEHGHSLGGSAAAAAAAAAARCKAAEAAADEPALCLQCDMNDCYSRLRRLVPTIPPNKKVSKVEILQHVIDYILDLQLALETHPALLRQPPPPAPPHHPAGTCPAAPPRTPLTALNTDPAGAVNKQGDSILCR
Calls only; i = inactive; x = no result given; + = active, no number.

SMILES,p53 mut binder,STAT3 SMM,Myc binder,ID4 binder
Cc1noc(C)c1NC(=O)N(C)C[C@@H]1Oc2c(NC(=O)c3ccc(-c4nccs4)cc3)cccc2C(=O)N([C@H](C)CO)C[C@@H]1C,i,i,i,i
C[C@H]1CN([C@@H](C)CO)C(=O)Cc2cc(NC(=O)Cc3ccccc3)ccc2O[C@H]1CN(C)C(=O)NC1CCCCC1,i,i,i,i
COc1ccc(S(=O)(=O)N(C)C[C@@H]2Oc3ccc(NC(=O)Nc4cccc5ccccc45)cc3CC(=O)N([C@@H](C)CO)C[C@@H]2C)cc1,i,i,i,i
C[C@H](CO)N1C[C@H](C)[C@@H](CN(C)C(=O)c2ccncc2)OCCCC[C@H](C)Oc2ccc(NS(C)(=O)=O)cc2C1=O,i,i,i,i
CNC[C@H]1Oc2c(NC(=O)C3CCOCC3)cccc2C(=O)N([C@@H](C)CO)C[C@@H]1C,i,i,i,i
COc1ccc(NC(=O)O[C@H]2[C@H](OC(=O)Nc3ccccc3)[C@H](OC(=O)Nc3ccccc3)[C@@H](OC)O[C@@H]2CO)cc1,i,i,i,i
COc1ccc(CN(C)C[C@H]2Oc3c(NS(=O)(=O)c4cccs4)cccc3C(=O)N([C@@H](C)CO)C[C@@H]2C)cc1,i,i,i,i
Cc1ccc2c(c1)c(-c1ccccc1)c(-c1ccccc1)n2CC(O)CN1CCN(CCO)CC1 (configuration not stated),i,i,i,i
COc1ccc(CN(C)C[C@@H]2Oc3ccc(NC(=O)Cc4ccccc4)cc3C(=O)N([C@H](C)CO)C[C@H]2C)cc1,i,i,i,i
COC1OC(O)C(O)C12CC[C@@]1(O2)[C@H](C)C[C@H]2OC(=O)[C@@]3(C)CCC[C@]1(C)C23 (some centres not stated),i,i,i,x
C[C@@H]1CN([C@H](C)CO)C(=O)Cc2cc(NC(=O)C3CC3)ccc2O[C@@H]1CN(C)Cc1ccncc1,i,i,i,i
COc1ccc(CN(C)C[C@H]2OCCCC[C@@H](C)Oc3ccc(NS(=O)(=O)c4ccc(F)cc4)cc3C(=O)N([C@H](C)CO)C[C@H]2C)cc1,i,i,i,x
C=C1CC[C@H](O)CC1=C/C=C1\CCC[C@]2(C)[C@@H]([C@H](C)CC[C@@H](O)C(C)(C)O)CC[C@@H]12,i,i,i,i
COc1ccc(CN(C)C[C@@H]2Oc3ccc(NC(=O)Cn4cnnn4)cc3CC(=O)N([C@H](C)CO)C[C@@H]2C)cc1,i,i,i,i
C[C@@H]1CC[C@]2(C(=O)O)CC[C@]3(C)C(=CCC4[C@@]5(C)CC[C@@H](O)[C@](C)(C(=O)O)C5CC[C@]43C)C2[C@H]1C (some centres not stated),i,i,i,i
Cc1nn(C(=O)Cn2ccc([N+](=O)[O-])n2)c(C)c1I,i,i,i,i
C[C@@H]1CN([C@@H](C)CO)C(=O)CCCn2cc(nn2)CO[C@H]1CN(C)Cc1ccc2cccnc2c1,i,i,i,i
CNCCCC1c2ccccc2C=Cc2ccccc21,i,i,i,i
Cc1noc(C)c1S(=O)(=O)Nc1ccc2c(c1)C(=O)N([C@H](C)CO)C[C@H](C)[C@@H](CN(C)C(=O)Nc1ccccc1)OCCCC[C@@H](C)O2,i,i,i,i
C=C(C(=O)O)C(CCCCCC)C(=O)O (configuration not stated),i,i,i,i
CC(C)(O)[C@@H]1Cc2cc3ccc(=O)oc3cc2O1,i,i,i,i
CNC[C@H]1Oc2ccc(NC(=O)CCCN(C)C)cc2C(=O)N([C@@H](C)CO)C[C@H]1C,i,i,i,i
C[C@H]1CN([C@@H](C)CO)C(=O)c2cc(NS(=O)(=O)c3ccc(Cl)cc3)ccc2O[C@@H]1CN(C)C(=O)Nc1ccc2c(c1)OCO2,i,i,i,i
C[C@H]1CCCCO[C@@H](CN(C)C(=O)c2ccncc2)[C@@H](C)CN([C@@H](C)CO)C(=O)c2cc(NS(C)(=O)=O)ccc2O1,i,i,i,i
c1ccc2nc(C3=NCCN3)cnc2c1,i,i,i,i
Cc1ccc(S(=O)(=O)N(C)CC(=O)Nc2ccccc2C(N)=O)cc1,i,i,i,i
CC(=O)c1ccccc1NS(=O)(=O)c1c(C)nn(-c2ccccc2)c1C,i,i,i,i
Cc1noc(C)c1NC(=O)Nc1ccc2c(c1)CC(=O)N([C@H](C)CO)C[C@H](C)[C@H](CN(C)S(=O)(=O)c1ccccc1)O2,i,i,i,i
Cc1noc(C)c1S(=O)(=O)N(C)C[C@H]1Oc2ccc(NC(=O)CCN3CCOCC3)cc2CC(=O)N([C@@H](C)CO)C[C@H]1C,i,i,i,i
CSc1ccc(C2C(C(=O)c3sc(C)nc3C)C(=O)C(=O)N2Cc2cccnc2)cc1 (configuration not stated),i,i,i,+

Grouped by structure, the entries above containing an aryl methoxy group.
SMILES,p53 mut binder,STAT3 SMM,Myc binder,ID4 binder
COc1ccc(S(=O)(=O)N(C)C[C@@H]2Oc3ccc(NC(=O)Nc4cccc5ccccc45)cc3CC(=O)N([C@@H](C)CO)C[C@@H]2C)cc1,i,i,i,i
COc1ccc(NC(=O)O[C@H]2[C@H](OC(=O)Nc3ccccc3)[C@H](OC(=O)Nc3ccccc3)[C@@H](OC)O[C@@H]2CO)cc1,i,i,i,i
COc1ccc(CN(C)C[C@H]2Oc3c(NS(=O)(=O)c4cccs4)cccc3C(=O)N([C@@H](C)CO)C[C@@H]2C)cc1,i,i,i,i
COc1ccc(CN(C)C[C@@H]2Oc3ccc(NC(=O)Cc4ccccc4)cc3C(=O)N([C@H](C)CO)C[C@H]2C)cc1,i,i,i,i
COc1ccc(CN(C)C[C@H]2OCCCC[C@@H](C)Oc3ccc(NS(=O)(=O)c4ccc(F)cc4)cc3C(=O)N([C@H](C)CO)C[C@H]2C)cc1,i,i,i,x
COc1ccc(CN(C)C[C@@H]2Oc3ccc(NC(=O)Cn4cnnn4)cc3CC(=O)N([C@H](C)CO)C[C@@H]2C)cc1,i,i,i,i

New compounds follow
SMILES,p53 mut binder,STAT3 SMM,Myc binder,ID4 binder
COc1ccc(-c2cc(-c3cccs3)nc(SC(C(=O)O)c3ccccc3)c2C#N)cc1 (configuration not stated),i,i,i,i
C[C@@H]1CCCCO[C@@H](CN(C)C)[C@H](C)CN([C@H](C)CO)C(=O)c2cc(NC(=O)Nc3ccc(F)cc3)ccc2O1,i,i,i,i
O=C(c1ccc(F)cc1)C1CCN(CCn2c(=S)[nH]c3ccccc3c2=O)CC1,i,i,i,i
C[C@@H]1CN([C@@H](C)CO)C(=O)Cc2cc(NS(=O)(=O)c3cn(C)cn3)ccc2O[C@H]1CN(C)CC1CC1,i,i,i,i
Cc1ccc(OCC(=O)Nc2ccc(Cl)cc2)c(-n2nc3ccccc3n2)c1,i,i,i,i
O=C(COc1ccccc1)Nc1cccc(-c2nc3c(ccc4ccccc43)o2)c1,i,i,i,i
CCOC(=O)CN(c1c(C)cccc1C)S(C)(=O)=O,i,i,i,i
O=C(CCSc1nnc(-c2cccc([N+](=O)[O-])c2)o1)Nc1ccc(Br)cc1,i,i,i,i
CNC[C@@H]1Oc2c(NC(=O)Nc3cccc4ccccc34)cccc2C(=O)N([C@@H](C)CO)C[C@H]1C,i,i,i,i
C[C@H](CO)N1C[C@H](C)[C@@H](CN(C)S(=O)(=O)c2cccs2)Oc2ccc(NS(C)(=O)=O)cc2CC1=O,i,i,i,i
C[C@@H]1CN([C@@H](C)CO)C(=O)c2cc(NS(C)(=O)=O)ccc2O[C@@H](C)CCCCO[C@H]1CN(C)C(=O)c1ccccc1,i,i,i,i
COc1ccc(NC(=O)Nc2ccc3c(c2)C(=O)N([C@H](C)CO)C[C@@H](C)[C@@H](CN(C)Cc2ccc4c(c2)OCO4)OCCCC[C@@H](C)O3)cc1,i,i,i,x
COc1ccc(CN(C)C[C@@H]2Oc3ccc(NC(=O)Nc4ccc(F)cc4)cc3C(=O)N([C@H](C)CO)C[C@H]2C)cc1,i,i,i,i
Cc1ccc(-c2nnc(SCC(=O)c3ccc([N+](=O)[O-])cc3)o2)cc1,i,i,i,i
C[C@@H]1CN([C@@H](C)CO)C(=O)Cc2cc(NC(=O)NC3CCCCC3)ccc2O[C@@H]1CN(C)C(=O)Nc1ccccc1,i,i,i,i
Cc1noc(C)c1S(=O)(=O)Nc1ccc2c(c1)C(=O)N([C@@H](C)CO)C[C@H](C)[C@H](CN(C)S(=O)(=O)c1cn(C)cn1)O2,i,i,i,x
COc1cc(CO)cc(I)c1O[C@H]1C=C(C(=O)NCCO)C[C@@H](NC[C@@H]2CCCO2)[C@@H]1O,i,i,i,i
CC(C)NC(=O)Nc1ccc2c(c1)C(=O)N([C@@H](C)CO)C[C@@H](C)[C@H](CN(C)Cc1ccccc1)O2,i,i,i,i
CN1CCN(C(=O)C2=C[C@@H](C3CC3)C[C@@H](OCCCCO)O2)CC1,i,i,i,i
Cc1ccc(-c2nnc(SCC(=O)c3cccc([N+](=O)[O-])c3)n2C)cc1,+,i,i,i
Cc1noc(C)c1NC(=O)Nc1ccc2c(c1)CC(=O)N([C@@H](C)CO)C[C@H](C)[C@@H](CN(C)S(=O)(=O)c1ccccc1)O2,i,i,i,i
COc1ccc(-c2nc3ccccc3o2)cc1NC(=O)COc1ccc(C(C)C)cc1,i,i,i,i
C[C@H]1CN([C@@H](C)CO)C(=O)c2cc(NC(=O)Cn3cnnn3)ccc2O[C@@H]1CN(C)S(C)(=O)=O,i,i,i,x
C[C@H](CO)N1C[C@H](C)[C@@H](CN(C)Cc2ccncc2)Oc2c(NS(=O)(=O)c3cn(C)cn3)cccc2C1=O,i,i,i,x
C[C@H](CO)N1C[C@H](C)[C@H](CN(C)Cc2ccncc2)Oc2ccc(NS(C)(=O)=O)cc2CC1=O,i,i,i,i
C[C@@H]1CN([C@@H](C)CO)C(=O)Cc2cc(NC(=O)Cc3ccccc3)ccc2O[C@H]1CN(C)C(=O)Nc1ccccc1,i,i,i,+
Cc1c(C(=O)Nc2cnccn2)oc2ccccc12,i,i,i,i
COCC1CC(c2ccccc2)OC(c2ccc(NC(=O)CCCCCCC(=O)O)cc2)O1 (configuration not stated),i,i,i,+
C/C(=C/c1ccc(C(=O)O)cc1)c1ccc2c(c1)C(C)(C)CCC2(C)C,i,i,i,i
O=C(CSc1nc2c(c(C(F)(F)F)n1)CCCC2)Nc1ccccc1,i,i,i,i

SMILES,p53 mut binder,STAT3 SMM,Myc binder,ID4 binder
Cc1cc(C(=O)Nc2cccc3c2O[C@H](CN(C)C(=O)NC2CCCCC2)[C@@H](C)CN([C@H](C)CO)C3=O)n(C)n1,i,i,i,i
O=C(CSc1nc2cc3ccccc3cc2[nH]1)Nc1ccc(F)cc1,i,i,i,i
C[C@H](CO)N1C[C@H](C)[C@@H](CN(C)C)Oc2ccc(NS(=O)(=O)c3ccccc3)cc2C1=O,i,i,i,i
C[C@@H]1CN([C@@H](C)CO)C(=O)Cc2cc(NC(=O)CCC(F)(F)F)ccc2O[C@H]1CN(C)C(=O)Nc1ccccc1,i,i,i,i
CC(C)NC(=O)N(C)C[C@H]1OCCCC[C@H](C)Oc2ccc(NS(=O)(=O)c3ccccc3)cc2C(=O)N([C@@H](C)CO)C[C@H]1C,i,i,i,i
C[C@@H]1CN([C@H](C)CO)C(=O)c2cccc(NC(=O)NC3CCCCC3)c2O[C@@H]1CN(C)C(=O)Nc1ccc(C(F)(F)F)cc1,i,i,i,i
COc1ccccc1OCC(=O)Nc1ccccc1C(=O)N1C(C)CCCC1C (configuration not stated),i,i,i,i
COc1ccc(NC(=O)Nc2cccc3c2O[C@H](CN(C)S(=O)(=O)c2ccc(Cl)cc2)[C@@H](C)CN([C@H](C)CO)C3=O)cc1,i,i,i,i
C[C@@H]1CCCCO[C@@H](CN(C)Cc2ccncc2)[C@@H](C)CN([C@@H](C)CO)C(=O)c2cc(NC(=O)c3ccncc3)ccc2O1,i,i,i,i
Cn1c2ccccc2c2c3c(c4c5ccccc5n(CCC#N)c4c21)CNC3=O,i,i,i,x
C[C@@H]1CN([C@H](C)CO)C(=O)c2cccc(NC(=O)NC3CCCCC3)c2O[C@@H]1CN(C)S(=O)(=O)c1ccc(Cl)cc1,i,i,i,i
C[C@H]1CN([C@@H](C)CO)C(=O)Cc2cc(NC(=O)C3CC3)ccc2O[C@H]1CN(C)S(=O)(=O)c1cccs1,i,i,i,i
Cn1c(=O)c2c(ncn2CCCN)n(C)c1=O,i,i,i,i
COc1ccc(S(=O)(=O)N(C)C[C@@H]2Oc3c(NC(=O)C4CC4)cccc3C(=O)N([C@@H](C)CO)C[C@H]2C)cc1,i,i,i,i
Cc1cc(C)n(S(=O)(=O)c2cc(C(=O)O)c(Cl)cc2Cl)n1,i,i,i,i
COC(=O)[C@]1(CCC(=O)OC(C)(C)C)N=C(c2ccc(OCCCO)cc2)O[C@@H]1c1ccccc1CN=[N+]=[N-],i,i,i,i
O=C(O)Cn1c(=O)n(CC(=O)O)c2ccccc21,i,i,i,i
Cc1noc(C)c1NC(=O)N(C)C[C@@H]1OCc2cn(nn2)CCCC(=O)N([C@H](C)CO)C[C@@H]1C,i,i,i,i
C[C@@H]1CN([C@@H](C)CO)C(=O)c2cc(NC(=O)Cc3ccccc3)ccc2O[C@@H](C)CCCCO[C@@H]1CN(C)S(=O)(=O)c1ccc(F)cc1,i,i,i,x
O=C(O)CSc1nnc(-c2sc3ccccc3c2Cl)n1-c1ccccc1,i,i,i,i
C[C@H]1CCCCO[C@H](CN(C)C)[C@@H](C)CN([C@@H](C)CO)C(=O)c2cc(NC(=O)c3ccncc3)ccc2O1,i,i,i,i

Assay outcomes as filed in PubChem.
